Compound activity as filed in PubChem.
FGF22 binding – binders of human FGF22 protein, primary screen, FGF22 synaptogenesis inhibitor project, biophysical, thermal shift, single point | calls only at 9.99 µM | recombinant FGF22 thermal shift, SYPRO orange fluorescence; percent of sucrose octasulfate shift, DMSO zero | AID 651658, 2012 | Fibroblast growth factor 22 (Homo sapiens), Q9HCT0 | 1.5% of 340,000 active;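 active = melting point raised past a set limit in the mean and every replicate; inconclusive = no clear call; three in four hits are not shown here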
Target sequence (Q9HCT0 whole entry, looked up): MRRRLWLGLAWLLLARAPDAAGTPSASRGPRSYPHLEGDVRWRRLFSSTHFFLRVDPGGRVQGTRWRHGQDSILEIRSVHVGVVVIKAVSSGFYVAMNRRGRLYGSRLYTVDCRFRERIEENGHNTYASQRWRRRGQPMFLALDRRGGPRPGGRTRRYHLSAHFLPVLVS
Vif A3G – inhibitors of Vif binding to APOBEC3G peptide, primary screen, biochemical, TR-FRET, GST-Vif 1-94, biotin-A3G peptide, dose response retest (AID 1117319); Virion infectivity factor (Human immunodeficiency virus type 1 group M subtype B (isolate …; TR-FRET GST-Vif / biotin-A3G peptide binding; higher % means a stronger effect; test concentration not given here; strong numbers were not always called active; inhibition, %, or IC50 in µM where a hit was titrated; 0.57% of 260,000 active;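 active = above the screen mean plus three standard deviations and confirmed in dose response; inconclusive = results disagree or hit not tested in dose response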;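 also: Vif residues 1-94 fused to GST binding biotinylated APOBEC3G peptide 110-148; 0% = full assay without inhibitor and 100% = GST in place of GST-Vif; retest series ran down from 100 µM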
AF4-AF9 inh – inhibitors of AF4 peptide binding to AF9, primary screen, biochemical, AlphaScreen, biotin-AF4 peptide, FLAG-AF9, single point; inhibition, % at 10 µM; 0.47% of 350,000 active; AID 651704, 2012;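 active = every replicate reaching a set inhibition limit, whatever the replicate mean, cut at about 25% in these data; inconclusive = mean inhibition reaches that limit but some replicates miss it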;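 also: 0% = plate neutral control median and 100% = total signal loss; the record names both 10 and 1 µM as test concentration; the first replicate is given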
Ecoli growth – E. coli growth inhibition, primary screen, OD600; OD600 absorbance (no concentration beside the values); 0.21% of 330,000 active; AID 1053175, 2014; Escherichia coli growth, 23 h; active compounds read low;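 active = OD600 absorbance below the run mean of sample wells minus 3.6 SD, in any replicate, cut at about 0.56 in these data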;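 also: stock transfer was 300 nL into about 60 µL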
rRNA inh HTS – reduced GFP signal of wild-type E. coli, primary screen, bacterial rRNA inhibitor project, GFP/RFP fluorescence, OD600, single point. E. coli WT GFP vs humanized-ribosome RFP mutants, 24 h; active compounds read low; DMSO median 0, no signal -100. GFP signal change (wild-type ribosome), % (no concentration beside the values). 1.6% of 350,000 active. AID 720706, 2013;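 active = significant combined selectivity score with lowered wild-type GFP, culture density cut under 30%, mutant RFP and density less affected; inactive = any of these conditions unmet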; also: one replicate is shown; some compounds called inactive have numbers as strong as hits
ALR inh – inhibitors of human ALR sulfhydryl oxidase, primary screen, biochemical, H2O2 detection, HRP-luminol luminescence, single point; FAD-linked sulfhydryl oxidase ALR (Homo sapiens), P55789; inhibition, % (no concentration beside the values); purified ALR, DTT oxidation; 3.8% of 290,000 active; AID 485317, 2010;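 active = mean and each replicate at 75% or more; inconclusive = only one of the two met; inactive = neither met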;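 also: stock transfer was 7.5 nL into about 7.5 µL; 0% = neutral wells and 100% = wells with inactivated enzyme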
Target sequence (P55789 whole entry, looked up): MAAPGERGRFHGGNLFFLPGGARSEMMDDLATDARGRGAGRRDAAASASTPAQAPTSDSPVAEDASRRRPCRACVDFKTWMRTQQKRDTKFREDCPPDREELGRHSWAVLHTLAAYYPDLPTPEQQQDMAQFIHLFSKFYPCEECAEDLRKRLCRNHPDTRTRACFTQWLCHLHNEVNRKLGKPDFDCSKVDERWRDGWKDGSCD
HNF4A DNA FP – change in binding of human HNF4A to DNA, primary screen, biochemical, fluorescence polarization, FITC-DNA | Hepatocyte nuclear factor 4-alpha (Homo sapiens), P41235 | 1 h | activity change, % at 10 µM | 0.3% of 360,000 active; in the data active = activity change above about 30%, passing the limit was not always enough;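 also: controls were the assay level and a saturating level of protein; the project sought stronger binding though the title names inhibitors; some compounds called inactive have numbers as strong as hits; positive values seem to mean higher polarization but the record does not say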
Target sequence (P41235 whole entry, looked up): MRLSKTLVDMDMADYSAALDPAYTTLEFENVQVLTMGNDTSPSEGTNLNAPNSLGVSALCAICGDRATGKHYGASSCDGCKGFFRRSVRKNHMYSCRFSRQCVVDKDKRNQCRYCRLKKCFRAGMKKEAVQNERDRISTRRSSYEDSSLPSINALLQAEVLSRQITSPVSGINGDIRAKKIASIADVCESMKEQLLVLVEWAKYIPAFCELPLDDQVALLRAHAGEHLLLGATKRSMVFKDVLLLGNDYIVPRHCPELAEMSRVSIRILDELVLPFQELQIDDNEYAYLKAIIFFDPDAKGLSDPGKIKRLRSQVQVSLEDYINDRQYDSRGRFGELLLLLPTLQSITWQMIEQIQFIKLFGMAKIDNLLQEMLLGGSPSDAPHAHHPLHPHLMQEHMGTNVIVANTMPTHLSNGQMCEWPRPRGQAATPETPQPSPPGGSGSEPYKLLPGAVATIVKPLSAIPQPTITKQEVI
rRNA inh HTS OD600 – further read-out of rRNA inh HTS, marked with its call; OD600 change, %; measured here: OD600 growth;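 optical density of the mix in the first replicate; 0 = DMSO median and -100 = no signal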
rRNA inh HTS RFP – also measured in rRNA inh HTS; calls as there; RFP signal change, %; measured here: RFP humanized mutant strains;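 first replicate; 0 = DMSO median and -100 = no signal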
Active calls of the source: *; i = inactive; ? = inconclusive; . = no result given. Not all compounds are listed; count on the stated rates, not on these rows.

Order of values: FGF22 binding | Vif A3G | AF4-AF9 inh | Ecoli growth | rRNA inh HTS | rRNA inh HTS OD600 | rRNA inh HTS RFP | ALR inh | HNF4A DNA FP
(1) Cc1ccc(C(=O)NCC2CCCN2S(=O)(=O)c2cccs2)cc1C (configuration not stated)
  i | -3% | 0.6 | 0.65 | -10 | -11 | 2.1 | -4 | 2.3
(2) COc1ccc(S(=O)(=O)N2CCC(C(=O)Nc3ccccc3C)CC2)c2cccnc12
  . | -4% | . | 0.74 | . | . | . | -9 | -1.5
(3) c1cnc2cc(-c3ccsc3)ncc2c1
  . | . | . | 0.79 | . | . | . | -4 | -2.3
(4) COc1ccccc1COCC(O)CNCC1(N2CCCCC2)CCCCC1 (configuration not stated)
  . | 1% | . | 0.71 | . | . | . | 7 | 3.5
(5) CCC1CN(C(=O)N2CCC(C(=O)NCCc3ccc(OC)cc3OC)CC2)c2ccccc2O1 (configuration not stated)
  i | -2% | -0.2 | 0.64 | 13 | 9 | 1.0 | -2 | 1.2
(6) Fc1cccc(F)c1CSc1nc2ccccc2[nH]1
  . | 4% | . | 0.65 | . | . | . | 66 | -3.1
(7) COCc1cc(Sc2ccc(Br)cc2)nc(-c2ccccc2)n1
  . | 28% | . | 0.73 | . | . | . | 99* | 4.5
(8) CC(C)[C@H]1COCCS(=O)(=O)N1Cc1ccccc1-c1ccccc1
  i | -6% | -5.5 | 0.69 | -49 | -68 | -14 | . | -1.1
(9) O=C(CNC(=O)c1cncc(Br)c1)Nc1ccc(F)c(F)c1F
  i | . | -3.6 | . | 2 | 13 | 1.0 | 0 | -3.5
(10) O=C(O)c1cccc(N2C(=O)CSC2=S)c1
  i | 2% | -3.1 | 0.69 | 14 | 12 | 4.8 | 79* | -0.6
(11) O=C(COC(=O)c1ccc(CO)cc1)Nc1ccc(OC(F)F)cc1
  i | 6% | -0.1 | 0.61 | 13 | 24 | 5.4 | 3 | 0.8
(12) CCCC#Cc1ccc2c(c1)O[C@@H](CN(C)Cc1ccc3c(c1)OCO3)[C@H](C)CN([C@H](C)CO)S2(=O)=O
  i | . | -3.0 | . | 6 | 5 | -1.1 | . | .
(13) CC(C)/C=N\NC(=O)CCCCC(=O)N/N=C/C(C)C
  i | -5% | -4.3 | . | 7 | 2 | -0.9 | 4 | 3.4
(14) CCC(=O)Nc1ccc2c(c1)C(=O)N(C)C[C@H](OC)[C@H](C)CN(C(=O)c1cnccn1)[C@H](C)CO2
  i | . | 1.0 | . | 3 | 4 | -3.3 | . | .
(15) CC(=O)Nc1ccccc1NC(=O)CN(C)S(=O)(=O)c1ccc(C)cc1
  . | 0% | . | 0.69 | . | . | . | -10 | 0.5
(16) CCOc1cccc(C2C(C#N)=C(N)Oc3cc(C)oc(=O)c32)c1OCC (configuration not stated)
  . | -3% | . | . | . | . | . | 4 | -0.8
(17) C[C@@H]1CCCCO[C@@H](CN(C)Cc2ccc(Cl)c(Cl)c2)[C@H](C)CN([C@@H](C)CO)C(=O)c2cc(NS(=O)(=O)c3ccc(Cl)cc3)ccc2O1
  i | . | -0.2 | . | 2 | -1 | 5.2 | . | .
(18) CCOC1=C2CN(S(=O)(=O)c3ccccc3)[C@@H](c3ccccc3)C[C@H]2[C@H]2C(=O)N(c3ccccc3)C(=O)[C@H]2C1
  i | . | -2.5 | . | 1 | 7 | 3.6 | . | .
(19) C/C=C/c1ccc2c(c1)O[C@H](CN(C)C(=O)c1cccc(F)c1)[C@H](C)CN([C@@H](C)CO)S2(=O)=O
  i | . | 2.0 | . | -6 | -27 | -0.3 | . | .
(20) O=c1c2ccccc2c2ccccc2c(=O)n1Cc1cccnc1
  . | 6% | . | 0.66 | . | . | . | -2 | 6.8
(21) Cc1ccc2nc3c(nc2c1C)CCCC3
  i | 4% | 0.3 | 0.69 | 9 | 13 | 1.8 | 0 | 0.5
(22) O=C(NCCCN1CCCCC1)C1CCC(CNS(=O)(=O)c2cccc3nsnc23)CC1 (configuration not stated)
  i | . | -2.9 | 0.7 | 14 | 16 | 6.5 | -9 | 0.6
(23) Cc1cc(Br)c2nc(-c3ccccc3)c(Cc3cccc(Cl)c3)n2c1
  i | . | -3.0 | . | 4 | 9 | 18 | . | 16
(24) CCOC(=O)c1nnn(-c2nonc2-n2cccc2)c1CN1CCC(C(=O)OCC)CC1
  i | 5% | -4.5 | 0.71 | . | . | . | 21 | -2.3
(25) O=C(NCC[C@H]1CC[C@H](NC(=O)c2ccccc2F)[C@H](CO)O1)c1ccc2c(c1)OCO2
  i | . | -0.7 | . | 6 | 5 | -1.0 | . | .
(26) COc1ccc(CCNC(=O)CSC2=NS(=O)(=O)c3cc(Cl)ccc3N2)cc1OC
  i | -5% | -10 | 0.68 | 4 | 11 | -2.1 | . | 2.4
(27) CCCC(c1nnnn1Cc1ccco1)N1CCN(C(=O)c2ccco2)CC1 (configuration not stated)
  . | 13% | . | 0.67 | . | . | . | -2 | -0.5
(28) Cc1ccc(/C=N/NC(=O)C(=O)N/N=C/c2ccc(C)o2)o1
  i | . | -1.0 | . | 21 | 19 | 2.8 | -32 | -0.7
(29) Cc1ccc(CSc2n[nH]c(N)n2)cc1
  i | 24% | -0.7 | 0.71 | -16 | -15 | -2.7 | 0 | 1.4
(30) CC(C)NC(=NCc1ccc(Cl)cc1Cl)Nc1ccccc1
  i | 13% | 3.2 | 0.64 | 0 | -6 | 12 | -2 | -0.5
(31) C/C(=N\NC(=O)CN(c1ccccc1Br)S(C)(=O)=O)c1ccc2c(c1)OCCO2
  i | 12% | 6.8 | . | 7 | 6 | -5.0 | -18 | 2.8
(32) C[C@H]1CN([C@@H](C)CO)S(=O)(=O)c2ccc(/C=C/c3ccccc3)cc2O[C@@H]1CN(C)Cc1ccccc1
  i | . | 9.8 | . | -1 | 6 | 1.7 | . | .
(33) C[C@H](CO)N1C[C@H](C)[C@@H](CN(C)Cc2ccc(C(=O)O)cc2)Oc2ccc(NC(=O)Cc3ccccc3)cc2C1=O
  i | . | -1.1 | . | 3 | 9 | -1.1 | . | .
(34) CCCC(=O)Nc1cc(C(F)(F)F)ccc1N1CCOCC1
  . | -12% | 0.1 | 0.7 | 8 | 7 | 2.5 | . | 1.6
(35) COc1ccc(CCNC(=O)C2CCCN(S(C)(=O)=O)C2)cc1 (configuration not stated)
  i | -4% | -8.9 | . | 15 | 3 | 0.3 | -8 | 0.4
(36) O=C(NC1CCCC1)N1CCCCN2[C@H](C1)[C@H](c1ccc(-c3cccnc3)cc1)[C@@H]2CO
  i | . | -0.5 | . | 4 | 11 | -3.7 | . | .
(37) Cc1cnc(CNC(=O)c2ccc3oc(C(C)C)nc3c2)[nH]1
  i | 3% | 0.5 | 0.7 | 1 | -6 | 2.5 | -2 | -2.2
(38) Cc1noc(C)c1S(=O)(=O)N(C)C[C@@H]1Oc2ccc(NC(=O)Cc3cn(C)c4ccccc34)cc2CC(=O)N([C@@H](C)CO)C[C@@H]1C
  i | . | 5.7 | . | -1 | -11 | -1.6 | . | .
(39) COc1ccc(-c2nn(CCC#N)cc2/C=N/O)cc1
  i | -19% | -1.3 | . | 12 | -2 | 1.7 | -1 | -2.2
(40) Nc1nc(N)nc(-c2cc(F)ccc2O)n1
  i | . | -1.2 | 0.66 | 1 | 6 | 1.3 | -2 | 3.1
(41) COc1ccc(C2Nc3ccccc3C(=O)N2NS(C)(=O)=O)cc1 (configuration not stated)
  i | 14% | -3.5 | 0.67 | 20 | 10 | 2.8 | -7 | 3.1
(42) Cc1ccc(OCCC(=O)Nc2cc(S(=O)(=O)N3CCOCC3)ccc2N2CCCC2)cc1
  i | . | 1.5 | 0.69 | 2 | -12 | 6.5 | . | 0.5
(43) O=C(Cn1cc(C(=O)COc2ccccc2)c2ccccc21)NCc1ccco1
  . | 0% | . | 0.7 | . | . | . | -4 | 19
(44) CCOc1ncccc1C(=O)Nc1cccc(-c2nc3cccnc3s2)c1
  i | -35% | -11 | 0.69 | 0 | 4 | -2.7 | -7 | 1.9
(45) COc1cc(OC)c(C(=O)c2ccccc2[N+](=O)[O-])c(OC)c1
  i | -4% | -14 | . | -3 | 1 | -1.1 | . | 2.9
(46) CCCCCCCCN1[C@@H](CC(=O)O)c2cc(F)ccc2S1(=O)=O
  i | . | -8.7 | . | -9 | -9 | -4.0 | 36 | -2.2
(47) CCNC(=S)NNC(=O)c1cc(-c2ccccc2C)nc2ccccc12
  . | 4% | . | 0.72 | . | . | . | -2 | -1.6
(48) C[C@H]1[C@H](c2ccccc2)C[C@@H](C(=O)O)C1(C)C
  i | . | -0.8 | . | 3 | 0 | 1.4 | 5 | 0.9
(49) COCCNC(=O)C[C@@H]1CC[C@@H]2[C@@H](COc3ccc(NC(=O)C4CCOCC4)cc3C(=O)N2C)O1
  i | . | -2.9 | . | 3 | 4 | 0.1 | . | .
(50) COc1ccc(C(O)c2nc(-c3ccc(F)c(Cl)c3)cs2)cc1 (configuration not stated)
  i | . | 1.5 | . | -63 | -82 | -20 | . | 1.4
(51) Cc1ccc(-c2ocnc2C(=O)Nc2ccccc2C(=O)N2CCCC2)cc1
  i | . | 0.0 | 0.68 | 0 | 0 | 0.3 | . | -0.7
(52) O=C(CNC(=O)c1ccccc1)OCc1ccc([N+](=O)[O-])cc1
  . | -2% | . | 0.69 | . | . | . | . | 5.2
(53) Cc1ccc(N(CCC(=O)NC(C)(C)C)S(=O)(=O)c2ccc(C)cc2)cc1
  i | . | -14 | 0.68 | -9 | -27 | -2.0 | -12 | -9.1
(54) COc1ccc(NC(=O)N(C)C[C@@H]2Oc3ccc(NC(=O)Cc4cn(C)c5ccccc45)cc3CC(=O)N([C@H](C)CO)C[C@@H]2C)cc1
  i | . | 2.7 | . | 5 | 0 | -0.2 | . | .
(55) Cc1cc(C)nc(NC(N)=NC(C)c2ccccc2)n1 (configuration not stated)
  i | -9% | 1.1 | 0.68 | -20 | -17 | 1.2 | -13 | .
(56) O=C(CNCc1ccc(Cl)cc1)Nc1cccc(C(=O)O)c1
  . | . | -1.5 | 0.64 | 11 | 7 | -3.5 | . | 2.0
(57) O=C(NC(=Nc1ccccc1)N1CCOCC1)Nc1ccccc1
  i | ? | -5.1 | 0.68 | 8 | 11 | 0.7 | -4 | -1.1
(58) CCOC(=O)c1nn(-c2ccccc2F)c(-c2ccccc2)c1C(=O)c1ccccc1
  . | -4% | . | 0.62 | . | . | . | -4 | 1.0

Structures above shown as hits in ALR inh.
no.	SMILES	Vif A3G	AF4-AF9 inh	rRNA inh HTS	rRNA inh HTS OD600	rRNA inh HTS RFP	ALR inh
7	COCc1cc(Sc2ccc(Br)cc2)nc(-c2ccccc2)n1	28%	.	.	.	.	99*
10	O=C(O)c1cccc(N2C(=O)CSC2=S)c1	2%	-3.1	14	12	4.8	79*
